Assay outcomes deposited in PubChem by Broad Institute.
PD-1 reversal: activators reversing PD-1 mediated T-cell inhibition, primary screen, luminescence, primary human CD4 T cells, PD-L1 beads; CellTiter-Glo 96 h; activation, % (concentration not given with the values); 29,000 tested, under 10 active; AID 2316, 2010;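 active = replicate mean of 50% or more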;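 also: 0% = median vehicle wells and 100% = positive control; 100 nL library stock added to about 50 µL; numbers are from one replicate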
MITF inh: inhibitors of MITF, primary screen, MITF inhibitor project, cell-based, luminescence | 0.28% of 37,000 active | TRPM1 promoter luciferase, 24 h | inhibition, % (test concentration not listed);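 active = most replicates at 85% or more, or half of them and the mean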;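 also: human melanocyte line stably carrying TRPM1 promoter luciferase reporter; 0% = vehicle wells and 100% = a positive control; the first replicate is given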
Hedgehog inh: Hedgehog pathway signaling inhibitors, primary screen, luminescence, Shh-LIGHT2 cells, Gli-luciferase; Shh-LIGHT2 Gli-luciferase reporter, 30 h; inhibition, % (test concentration not listed); 2.1% of 22,000 active;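 active = replicate mean of 65% or more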;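 also: pathway switched on by Shh-conditioned medium diluted 1 in 25 in low serum; 100 nL library stock added to about 40 µL; 0% = median of neutral wells and 100% = positive control level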
YB-1 expression: inhibitors of YB-1 gene expression, primary screen, cell-based, fluorescence | 0.37% of 30,000 active | AID 434959, 2010 | U2OS, qRT-PCR YB-1 vs CDIP delta delta Cp, 16 h; stronger effect = higher value; zero = DMSO, each unit about twofold | delta delta Cp (YB-1 minus CDIP) (test concentration not listed);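 active = delta delta Cp rounded down to an integer at or above 3, about 3 SD of DMSO wells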;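 also: higher means less YB-1 transcript or more CDIP transcript relative to DMSO; stock transfer was 100 nL into about 100 µL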
Starred values were filed as active, the others as inactive; x = not tested or not shown. The list is partial; rates above refer to the full screens.

Molecule	PD-1 reversal	MITF inh	Hedgehog inh	YB-1 expression
COc1ccc(CN(C)C[C@H]2Oc3c(NS(=O)(=O)c4cccs4)cccc3C(=O)N([C@H](C)CO)C[C@H]2C)cc1	2.1	-4.4	11.1	0.258
C[C@@H]1CN([C@H](C)CO)C(=O)c2cc(NS(=O)(=O)c3ccc(Cl)cc3)ccc2O[C@@H]1CN(C)S(=O)(=O)c1ccc(F)cc1	-1.2	-0.6	24.2	0.175
C[C@H](CO)N1C[C@H](C)[C@@H](CN(C)C(=O)Nc2ccc3c(c2)OCO3)Oc2c(NS(=O)(=O)c3cccs3)cccc2C1=O	0.8	-9.8	-36.1	0.0543
COc1cc(OC)cc(OCC(O)Cn2cnc(-c3ccccc3)c2)c1 (stereo unspecified)	-1.4	3.2	x	x
C[C@H]1CN([C@@H](C)CO)C(=O)c2cc(NC(=O)Nc3ccccc3)ccc2O[C@H]1CN(C)C(=O)NC1CCCCC1	1.5	-3.7	-32.0	0.624
CCn1c(SCC(=O)c2ccc(F)cc2)nnc1-c1cccc([N+](=O)[O-])c1	-0.8	-17.9	x	x
COc1ccc(-c2coc3c(OC)c(OC)cc(OC)c3c2=O)cc1	x	-8.0	-1.9	0.152
Cc1cc(Cl)c(C(N)=O)c(C)n1	1.2	6.1	-3.4	-0.114
Cc1ccc(S(=O)(=O)N(C)C[C@H]2Oc3ccc(NC(=O)CCN4CCOCC4)cc3C(=O)N([C@H](C)CO)C[C@H]2C)cc1	1.5	3.1	x	0.244
CC(C)=CC(O)C/C(C)=C/COc1ccc2ccc(=O)oc2c1 (stereo unspecified)	2.2	-5.4	8.4	-0.0355
COC(=O)c1cc(C)cc(OC)c1C1C(=O)C(=O)c2c(O)cccc2C1=O (stereo unspecified)	-0.5	16.3	13.5	-0.0705
C[C@H]1CN([C@@H](C)CO)C(=O)c2cc(NS(=O)(=O)c3ccc(F)cc3)ccc2O[C@@H]1CN(C)Cc1ccc(C(=O)Nc2ccccc2N)cc1	0.1	-2.9	x	0.28
C[C@@H]1CCCCO[C@@H](CN(C)Cc2ccc(C(F)(F)F)cc2)[C@@H](C)CN([C@H](C)CO)C(=O)c2cc(NC(=O)c3ccccc3)ccc2O1	0.3	34.6	x	-0.446
COc1ccc(CN(C)C[C@@H]2Oc3ccc(NS(=O)(=O)c4cn(C)cn4)cc3C(=O)N([C@H](C)CO)C[C@@H]2C)cc1	0.0	1.7	-15.0	0.0117
O=S(=O)(c1ccc(F)cc1)c1nc(-c2ccccc2Cl)oc1NCc1ccco1	0.2	15.4	x	x
Cc1nn(CC(=O)Nc2ccc(C(C)C)cc2)c(C)c1[N+](=O)[O-]	0.2	5.4	x	x
CN(C(=O)CSc1nnc(N)s1)c1ccccc1	0.6	-3.2	x	x
Cc1ccc(N(C(C)C(=O)Nc2cccc(Cl)c2Cl)S(C)(=O)=O)cc1 (stereo unspecified)	-2.4	-17.7	x	x
C[C@]12CCC[C@](C)(C(=O)O)C1CCC13C=C(CO)C(CCC12)C3 (stereo partly specified)	0.8	-4.9	-13.4	0.418
Cc1c(Cl)cccc1NC(=O)CN1CCC(C(N)=O)(N2CCCCC2)CC1	0.9	-13.8	x	x
CNC[C@H]1Oc2ccc(NC(=O)Nc3ccc(F)cc3)cc2C(=O)N([C@@H](C)CO)C[C@H]1C	2.3	4.2	-0.5	-0.191
C[C@H](CO)N1C[C@H](C)[C@@H](CN(C)C(=O)Nc2ccccc2)Oc2ccc(NC(=O)Nc3ccc4c(c3)OCO4)cc2C1=O	1.3	8.6	-30.7	0.341
C[C@H]1CN([C@@H](C)CO)C(=O)Cc2cc(NS(=O)(=O)c3cccs3)ccc2O[C@@H]1CN(C)S(=O)(=O)c1ccccc1	1.4	-15.3	-8.9	-0.239
C[C@H](CO)N1C[C@H](C)[C@H](CN(C)CC2CC2)Oc2ccc(NS(=O)(=O)c3ccc(Cl)cc3)cc2C1=O	2.4	3.3	-28.0	0.255
C[C@H]1CN([C@@H](C)CO)C(=O)Cc2cc(NC(=O)CCN3CCOCC3)ccc2O[C@H]1CN(C)Cc1ccc(Oc2ccccc2)cc1	-2.5	7.1	1.8	0.344
COc1ccc(S(=O)(=O)N(C)C[C@H]2Oc3ccc(NC(=O)Cc4cn(C)c5ccccc45)cc3CC(=O)N([C@@H](C)CO)C[C@H]2C)cc1	-1.9	9.8	-15.2	0.013
CSc1sc(-c2ccn[nH]2)c(-c2ccco2)c1C#N	-1.7	1.8	25.5	0.392
C[C@H]1CN([C@@H](C)CO)C(=O)c2cc(NS(=O)(=O)c3ccc(Cl)cc3)ccc2O[C@@H]1CN(C)CC1CCCCC1	2.3	6.2	-18.9	-0.344
O=C(COc1ccc(Cl)cc1)CC(=O)c1ccc(Cl)cc1	-3.0	-5.2	5.8	-0.32
CC(=O)c1cccc(NC(=O)C2CCCN(S(=O)(=O)c3ccccc3)C2)c1 (stereo unspecified)	-0.8	-7.0	x	x
Cc1noc(C)c1S(=O)(=O)Nc1ccc2c(c1)CC(=O)N([C@H](C)CO)C[C@@H](C)[C@@H](CN(C)Cc1ccccc1)O2	1.1	-2.0	4.0	-0.157
C[C@H](CO)N1C[C@H](C)[C@H](CN(C)Cc2ccncc2)Oc2ccc(NC(=O)C3CC3)cc2CC1=O	2.6	-2.9	-20.1	0.767
C[C@H]1CN([C@@H](C)CO)C(=O)c2cc(NC(=O)Cc3cn(C)c4ccccc34)ccc2O[C@H]1CN(C)C(=O)Nc1ccccc1	x	14.9	7.1	-0.239
C[C@@H]1CN([C@H](C)CO)C(=O)c2cccc(NC(=O)Nc3ccc(F)cc3)c2O[C@H]1CN(C)Cc1ccccc1	-6.5	50.6	9.8	0.251
CC(=O)Nc1ccc(NC(=O)CN(C)S(=O)(=O)c2ccc(Br)cc2)cc1	2.3	-10.9	x	x
C[C@H](CO)N1C[C@H](C)[C@H](CN(C)Cc2ccc(C(F)(F)F)cc2)Oc2ccc(NC(=O)Cc3ccccc3)cc2C1=O	-4.4	20.7	x	0.158
CCOC(=O)C1=C(C)Nc2ncnn2C1c1ccco1 (stereo unspecified)	0.3	-12.8	x	x
C[C@@H]1CN([C@H](C)CO)C(=O)c2cc(NS(=O)(=O)c3ccccc3)ccc2O[C@@H]1CN(C)S(=O)(=O)c1ccccc1	-0.2	-3.7	7.1	-0.014
Cc1nnnn1CC(=O)Nc1cccc([N+](=O)[O-])c1	0.1	-24.6	x	x
Cc1ccc(S(=O)(=O)N(C)C[C@H]2Oc3ccc(NC(=O)Nc4ccc(F)cc4)cc3C(=O)N([C@H](C)CO)C[C@@H]2C)cc1	0.9	-4.8	0.9	0.147
COc1ccc(S(=O)(=O)Nc2ccc3c(c2)C(=O)N([C@H](C)CO)C[C@H](C)[C@@H](CN(C)C(=O)Cc2ccccc2)OCCCC[C@@H](C)O3)cc1	-1.4	-2.3	-0.5	0.316
CC(C)NC(=O)Nc1cccc2c1O[C@@H](CN(C)S(=O)(=O)c1ccc(F)cc1)[C@H](C)CN([C@H](C)CO)C2=O	1.6	-5.1	-8.6	0.0436
C[C@@H]1CN([C@@H](C)CO)C(=O)c2cc(NC(=O)NC3CCCCC3)ccc2O[C@H]1CN(C)C	x	2.0	-7.5	-0.0512
Cc1ccc(S(=O)(=O)N(C)C[C@@H]2OCCCC[C@@H](C)Oc3ccc(NC(=O)NC(C)C)cc3C(=O)N([C@H](C)CO)C[C@@H]2C)cc1	-1.8	9.4	-15.5	-0.0157
C[C@H](CO)N1C[C@H](C)[C@H](CN(C)Cc2ccc(Cl)c(Cl)c2)Oc2ccc(NS(=O)(=O)c3ccccc3)cc2C1=O	-6.2	-2.3	x	-1.25
C[C@H](CO)N1C[C@H](C)[C@H](CN(C)S(=O)(=O)c2cccs2)Oc2c(NC(=O)Nc3cccc4ccccc34)cccc2C1=O	x	3.4	3.2	-0.0271
COc1ccc(NC(=O)Nc2nn(Cc3c(F)cccc3Cl)cc2Cl)cc1OC	-1.2	-12.0	x	x
Cc1cccc(OCC(O)Cn2cnc3ccccc32)c1 (stereo unspecified)	-2.0	1.4	x	x

Rewritten with two lines to a compound: entries from further up
The line under a structure holds: PD-1 reversal	MITF inh	Hedgehog inh	YB-1 expression
> C[C@H](CO)N1C[C@H](C)[C@H](CN(C)Cc2ccc(Cl)c(Cl)c2)Oc2ccc(NS(=O)(=O)c3ccccc3)cc2C1=O
→ -6.2	-2.3	x	-1.25
> C[C@H](CO)N1C[C@H](C)[C@H](CN(C)S(=O)(=O)c2cccs2)Oc2c(NC(=O)Nc3cccc4ccccc34)cccc2C1=O
→ x	3.4	3.2	-0.0271
> COc1ccc(NC(=O)Nc2nn(Cc3c(F)cccc3Cl)cc2Cl)cc1OC
→ -1.2	-12.0	x	x

Continuation:
Molecule	PD-1 reversal	MITF inh	Hedgehog inh	YB-1 expression
CS(=O)(=NS(=O)(=O)c1cc(S(=O)(=O)c2ccccc2)cs1)c1ccc(Cl)cc1 (stereo unspecified)	0.4	-6.3	19.7	0.253
O=C(O)c1cccc(NC(=O)c2ccc3c(c2)C(=O)N(Cc2cccnc2)C3=O)c1	2.6	-6.1	x	x
CN(CC(=O)Nc1ccc([N+](=O)[O-])cc1)S(=O)(=O)c1cc(Cl)ccc1Cl	-2.4	11.5	x	x
C[C@@H]1CN([C@@H](C)CO)C(=O)Cc2cc(NS(=O)(=O)c3ccccc3)ccc2O[C@@H]1CN(C)S(=O)(=O)c1ccccc1	-0.8	-21.1	3.5	-0.231
Cc1cc(C(=O)Nc2cccc3c2O[C@H](CN(C)Cc2ccc4c(c2)OCO4)[C@@H](C)CN([C@@H](C)CO)C3=O)n(C)n1	-1.2	-13.5	15.1	0.024
CC(C)NC(=O)Nc1ccc2c(c1)C(=O)N([C@H](C)CO)C[C@H](C)[C@@H](CN(C)Cc1ccc(C(F)(F)F)cc1)O2	-0.4	1.4	-49.5	-0.0798
C[C@H]1CN([C@@H](C)CO)C(=O)c2cc(NC(=O)Nc3ccc4c(c3)OCO4)ccc2O[C@@H]1CN(C)S(=O)(=O)c1cn(C)cn1	-0.3	-1.1	x	-1.54
COc1cc(O)c2c(c1)O[C@H](c1ccc(O)c(O)c1)[C@@H](OC(C)=O)C2=O	-2.4	-37.4	-14.6	-0.485
C[C@@H]1CN([C@H](C)CO)C(=O)c2cccc(NC(=O)c3cnccn3)c2O[C@H]1CN(C)Cc1ccc(Cl)c(Cl)c1	-5.7	24.4	-7.7	0.0819
Cc1noc(C)c1NC(=O)Nc1ccc2c(c1)CC(=O)N([C@@H](C)CO)C[C@H](C)[C@@H](CN(C)S(=O)(=O)c1ccc(F)cc1)O2	0.9	0.0	11.7	0.365
Cc1noc(C)c1NC(=O)Nc1ccc2c(c1)C(=O)N([C@H](C)CO)C[C@H](C)[C@H](CN(C)Cc1ccccc1)O2	5.0	-25.3	x	-0.645
Cc1ccccc1C(=O)Nc1cccc(NC(=O)COc2ccccc2Cl)c1	-0.1	-35.3	x	x
CCCN(C)C[C@@H]1OCCCC[C@@H](C)Oc2ccc(NC(=O)Nc3ccc(F)cc3)cc2C(=O)N([C@H](C)CO)C[C@@H]1C	-0.2	-4.4	9.7	-0.088
Cc1noc(C)c1NC(=O)N(C)C[C@H]1Oc2ccc(NC(=O)Cn3cnnn3)cc2CC(=O)N([C@@H](C)CO)C[C@H]1C	3.4	-3.5	14.6	0.582
CC(C)(C)NC(=O)CSc1ccc(Cl)cc1	-1.5	-47.4	-18.8	0.0771
CNC[C@H]1Oc2ccc(NC(=O)NC(C)C)cc2CC(=O)N([C@@H](C)CO)C[C@H]1C	0.1	12.9	-36.9	-0.109
O=C1CC(C(=O)Nc2ccc3c(c2)OCCO3)n2ncnc2N1 (stereo unspecified)	1.2	-8.8	x	x
Cc1ccc(S(=O)(=O)N(C)C[C@@H]2Oc3ccc(NS(=O)(=O)c4c(C)noc4C)cc3C(=O)N([C@@H](C)CO)C[C@@H]2C)cc1	0.1	-7.2	2.1	0.103
CS(=O)(=O)Nc1ccccc1C(=O)NCc1ccco1	3.2	-4.4	x	x
COc1ccc(C(=O)Cn2c3ccccc3n3nc(-c4ccccc4)nc23)cc1OC	-0.4	-16.6	x	x
C[C@]12C=CC(=O)C=C1CCC1C2C(=O)C[C@@]2(C)C1CC[C@]2(O)C(=O)CO (stereo partly specified)	x	-10.6	-7.2	-0.115
Cc1ccc(S(=O)(=O)Nc2ccc3c(c2)CC(=O)N([C@H](C)CO)C[C@H](C)[C@H](CN(C)CC2CCCCC2)O3)cc1	-1.7	-12.3	32.4	-0.118
CC(C)C1NC(=O)C(CC2(O)c3ccccc3N3C(=O)C(Cc4ccccc4)NC32)NC1=O (stereo unspecified)	1.6	-18.3	4.1	0.395
Cc1ccc2cccc(S(=O)(=O)NC3CCS(=O)(=O)C3)c2n1 (stereo unspecified)	1.5	-7.7	x	x
Cc1cc(OCC(=O)Nc2ccccc2-c2nc3ccccc3s2)ccc1Cl	0.8	20.0	x	x
